Screening data from PubChem.
hNpr1 antagonist: human Npr1 receptor antagonism; P16066; HEK293 hNpr1 GloSensor cGMP, ANP-stimulated luminescence; Potency, µM (doses to about 46.3 µM), without a hit: at the top dose activity change, negative = inhibition, hits mostly inhibitors; actives 1.6% (n = 76,000); AID 1347048; active = well fitted inhibition curve with a large enough effect; inconclusive = small, poorly fitted or top-dose-only effect; inactive = no such curve, though single readings can be large or run the other way;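 note: nearly all actives have a fitted effect of over 60% in size; nearly all hits also lower the signal before the agonist is added; a reference antagonist and vehicle were the controls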
Target sequence (P16066 whole entry, looked up): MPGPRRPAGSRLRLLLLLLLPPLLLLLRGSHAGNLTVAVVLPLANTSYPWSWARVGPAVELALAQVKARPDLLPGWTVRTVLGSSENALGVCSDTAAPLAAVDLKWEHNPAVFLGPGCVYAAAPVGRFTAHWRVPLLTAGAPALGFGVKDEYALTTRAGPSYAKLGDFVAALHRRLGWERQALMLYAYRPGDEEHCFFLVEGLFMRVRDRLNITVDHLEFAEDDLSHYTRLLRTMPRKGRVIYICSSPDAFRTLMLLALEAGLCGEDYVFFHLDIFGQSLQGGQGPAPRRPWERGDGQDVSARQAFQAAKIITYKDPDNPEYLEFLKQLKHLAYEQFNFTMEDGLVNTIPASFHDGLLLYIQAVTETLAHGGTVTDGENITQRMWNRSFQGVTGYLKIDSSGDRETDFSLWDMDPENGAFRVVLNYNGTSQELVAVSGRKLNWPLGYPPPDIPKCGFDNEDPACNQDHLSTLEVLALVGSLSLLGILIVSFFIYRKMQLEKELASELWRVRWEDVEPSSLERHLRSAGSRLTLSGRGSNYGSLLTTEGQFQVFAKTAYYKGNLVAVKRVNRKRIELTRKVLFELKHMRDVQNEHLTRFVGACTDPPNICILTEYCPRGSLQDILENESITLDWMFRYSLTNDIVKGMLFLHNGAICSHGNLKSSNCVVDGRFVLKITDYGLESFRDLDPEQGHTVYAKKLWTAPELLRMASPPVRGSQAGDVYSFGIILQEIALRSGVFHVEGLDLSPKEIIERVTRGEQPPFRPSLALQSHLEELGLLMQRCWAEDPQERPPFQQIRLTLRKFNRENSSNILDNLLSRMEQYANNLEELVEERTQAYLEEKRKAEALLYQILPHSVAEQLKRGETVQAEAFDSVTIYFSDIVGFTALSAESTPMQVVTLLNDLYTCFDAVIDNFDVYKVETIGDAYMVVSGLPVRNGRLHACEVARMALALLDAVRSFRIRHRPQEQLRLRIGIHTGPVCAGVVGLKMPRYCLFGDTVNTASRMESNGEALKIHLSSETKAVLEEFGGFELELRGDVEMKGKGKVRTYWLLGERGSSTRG
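Compound pre-incubated 30 min at room temperature on GloSensor-loaded HEK293 cells stably carrying hNpr1 and the pGS-40F cGMP biosensor. Stimulation uses hNppA at 0.1 nM final; luminescence is taken at baseline and 20 min post-agonist.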
Active calls of the source: *; ? = inconclusive; [ ] = remark or other dose. % is set by controls: 0 for no effect and ±100 for the full control effect; potency is the fitted concentration of half-maximal effect. The list is partial; rates above refer to the full screens.

Structure,hNpr1 antagonist
COc1ccc(-c2noc(N3CCc4ccccc43)n2)cc1,?
CCN(C(=O)Cn1ccn2nc3c(c2c1=O)CCCCC3)c1cccc(C)c1,22.7%
Cc1ccc(S(=O)(=O)N2CCCC(CCC(=O)N3CCOCC3)C2)cc1 (stereo unspecified),-16.5%
Cc1ccc(CN[C@@H]2CO[C@H](CNC(=O)C3CC3)[C@H]2O)cc1,5.8%[70.6 µM]
O=C(Nc1ccc2ncnc(N3CCCC3)c2c1)c1ccc(OC(F)(F)F)cc1,-11.1%
COc1cccc(C(=O)NC2CCN(c3cc(-c4cccs4)[nH]n3)CC2)c1,-23.6%
CC1=C(C(=O)OC(C)(C)C)C(c2ccc(Cl)cc2)N2C(CC(=O)N3CCCC3)=CSC2=N1 (stereo unspecified),-26.3%
CNC(=O)N1C[C@@H](CN(C)C)[C@H](NC(=O)c2cccn2C)C1,-1.6%
COC(=O)[C@@H]1Cc2ncn(C)c2CN1S(=O)(=O)Cc1ccccc1,1.9%[70.6 µM]
CN(Cc1ccc(-c2ccccc2)cc1)Cc1ccc(N(C)C)cc1,-10.3%
COc1ccc(C(=O)NC2CCCN(c3cc(-c4ccccc4)[nH]n3)C2)cc1F (stereo unspecified),-25.9%
O=C(NCc1ccco1)N1CCc2nc3cc(-c4ccccc4Cl)[nH]n3c(=O)c2C1,-15.0%
COc1ccc(C(=O)N[C@H]2CC[C@]3(C)CCC([C@H](C)C(=O)N4CCCC4)[C@H](O)[C@H]3[C@@H]2C)cc1 (stereo partly specified),-7.4%
CN1CCCN(S(=O)(=O)c2ccc(Cl)cc2)c2ccccc21,-0.3%
COc1ccc(OCc2nc(C3CN(C(=O)Nc4cccc(F)c4)C3)no2)cc1,-18.7%
COc1ccc(NC(=O)N2C[C@@H]3C[C@H](C2)c2ccc(NC(=O)c4ccccc4)c(=O)n2C3)cc1,0.0%
Cc1ccccc1N1CCN(C(=O)[C@@]23CCCC[C@H]2N(CCC(C)C)C(=O)CC3)CC1,-17.0%
CC(C)n1cc(CN2C[C@@H](COCC(N)=O)[C@H](c3ccncc3)C2)cn1,-0.5%
CN(Cc1ccccc1)C(=O)CCC1CCN(C(=O)CCN2CCCO2)CC1,11.1%
Cc1noc([C@@H]2CN(C3CCSCC3)C[C@H]2CO)n1,-0.3%

Continuation.
Structure,hNpr1 antagonist
CCS(=O)(=O)Nc1ccc(C2(C(=O)Nc3cccc(F)c3C)CCCCC2)cc1,-7.8%
COc1cccc(CNC(=O)CC2C(=O)NCCN2CC(C)C)c1OC (stereo unspecified),0.8%
O=C(Cn1nc2c(cc1=O)CCCC2)Nc1cccc2[nH]ccc12,3.7%
COc1ccccc1C(=O)N1CCCn2nc(C)c(-c3ccccc3C(C)C)c21,-1.6%[70.6 µM]
O=C([C@H]1C[C@H](Oc2ccccc2)CN1C(=O)COc1ccccc1)N1CCOCC1,1.1%
Cn1cccc1CN1CCC2(CC1)CN(Cc1ccccc1)CC2CO (stereo unspecified),0.8%
Cc1nnc([C@H]2CCN(Cc3c[nH]c4ccccc34)C2)o1,5.1%[70.6 µM]
O=C(c1ccc2c(c1)OCO2)N1CCC2(CNc3ccccc3[S+](=O)([O-])N2)C1 (stereo unspecified),-8.3%
O=C(O)CCC(=O)N1Cc2[nH]cnc2C[C@H]1c1nc(-c2ccc3ccccc3c2)no1,4.1%[70.6 µM]
Cc1ccc(OCCC2CCN(C(=O)c3ccccc3F)C2)cc1 (stereo unspecified),?
O=C(NCCc1ccccc1)Nc1cccn2ncnc12,-3.7%
Cc1ccsc1CN(C)Cc1c(C)n(C)n(-c2ccccc2)c1=O,9.6%
CCCc1noc(-c2cccn3c(CNC(=O)C4CCC4)nnc23)n1,5.2%
CNC(=O)CCC[C@H]1NC[C@@H]2CCCN3CCC[C@H]1[C@H]23,-3.8%
NC(=O)Cc1c[nH]c2ncc(-c3ccccc3Oc3ccccc3)cc12,25.1µM*
CCS(=O)(=O)N1C[C@@H]2CN(Cc3coc(C)n3)C[C@]2(C(=O)O)C1,15.6%
CCN1CCN(CCNC(=O)c2cn3ccnc(-c4ccc(OC)cc4)c3n2)CC1,-1.4%
CCCCN1CCOc2ccc(C(=O)NCc3ccccc3F)cc2C1,-11.4%
CS(=O)(=O)N1CCC(C2CCN(C(=O)c3cc(Cl)ccc3F)C2)CC1 (stereo unspecified),3.5%
O=C(O)[C@]12CCCN[C@@H]1CCN(Cc1cnc(-c3ccccn3)nc1)C2,1.2%

Shown with the structure last: two of the compounds above.
hNpr1 antagonist	Molecule
0.8%	Cn1cccc1CN1CCC2(CC1)CN(Cc1ccccc1)CC2CO (stereo unspecified)
5.1%[70.6 µM]	Cc1nnc([C@H]2CCN(Cc3c[nH]c4ccccc34)C2)o1

Following part
Structure,hNpr1 antagonist
CCOC(=O)C1(Cc2cccc(OC)c2)CCNCC1,6.8%
O=C(NCc1nc(-c2ccc(F)cc2)no1)C1CC(=O)N(Cc2ccccn2)C1 (stereo unspecified),-2.1%
COC[C@@H]1CN(C(=O)c2ccc(OC)nc2)C[C@H]1c1nc(C2CC2)no1,1.1%
COc1ccc(-c2cn(C)c(=O)n3cc(COc4ccc(C(=O)O)cc4)nc23)c(C)c1,3.5%[70.6 µM]
CSc1ccc(NC(=O)Nc2cccc(-c3ccc(N4CCOCC4)nn3)c2)cc1,11.2µM*
COc1ccc(CNC[C@H]2O[C@H](Cc3cc(CN4CCOCC4)on3)CC[C@@H]2O)cc1,-0.6%[70.6 µM]
c1ccc(-c2ccc(CNCC3CCCO3)o2)cc1 (stereo unspecified),-0.1%
NC(=O)CO[C@@H]1CO[C@H]2[C@@H]1OC[C@@H]2NC(=O)c1ccc(C(F)(F)F)cc1,-0.2%[70.6 µM]
CC(C)C(=O)N1CCC(CCOc2ccc(F)cc2)C1 (stereo unspecified),2.8%
CC(C)c1ccc(CC(=O)N2CCCc3ncc(C(=O)NCc4ccncc4)cc32)cc1,1.6%[70.6 µM]
O=C(N[C@@H]1CNC[C@H]1O)C1CCN(c2nc(-c3ccccc3)nc3c2CCC3)CC1,0.2%
CCC1(C2CCN(C(=O)CCc3ccccc3)CC2)NC(=O)N(CCc2scnc2C)C1=O (stereo unspecified),1.9%
O=C(NCc1ccc(Cl)cc1)[C@@H]1Cc2nc[nH]c2CN1C(=O)NC1CCCCC1,3.8%[70.6 µM]
O=C(CN1CCOC1=O)N1CCC(Cc2nncn2-c2ccccc2)CC1,2.2%
O=C1CCN(C(=O)C2CCCCC2)CCCC(c2nc(-c3ccccc3)no2)CCN1 (stereo unspecified),-0.7%
COc1cc(=O)n2c(c1C(=O)Nc1ccc(Cl)cc1)CCCC2,8.2%
CN(Cc1nc(C2CC2)no1)C(=O)c1cc(Cn2ccc3ccccc32)[nH]n1,1.7%
COc1ccc(Cn2c(C3CCN(C(=O)c4ccc5c(c4)OCO5)CC3)n[nH]c2=O)cc1,-2.3%
O=C(O)C1CNCCN(CCOCc2ccccc2)C1 (stereo unspecified),-13.2%
COCC1CN(C(=O)COc2ccc(Cl)cc2C)CC12CCNCC2 (stereo unspecified),3.2%

Continued, overlapping the part above by two compounds.
Structure,hNpr1 antagonist
O=C(O)C1CNCCN(CCOCc2ccccc2)C1 (stereo unspecified),-13.2%
COCC1CN(C(=O)COc2ccc(Cl)cc2C)CC12CCNCC2 (stereo unspecified),3.2%
O=C(Cn1ncc2ccccc2c1=O)NCCc1nc(-c2ccccn2)no1,0.0%
O=C(NCc1cc(F)ccc1F)C1CCN(C(=O)c2ncn3c2COC(c2ccccc2)C3)CC1 (stereo unspecified),-16.0%
COc1ccccc1CCN1CCCC(CN(C)C(=O)CN2C(=O)CNC2=O)C1 (stereo unspecified),5.3%
CC[C@H]1CN(S(=O)(=O)c2ccc(OC)cc2)CC[C@H]1CC(=O)N1CCC(C(=O)OC)CC1,1.0%
COCc1nnc2n1CCC(NC(=O)COc1ccc(Cl)cc1)CC2 (stereo unspecified),0.9%
COc1ccc(C(=O)NC2CCN(c3cc(-c4ccccc4)[nH]n3)CC2)cc1,0.0%
CCOc1ccc(C2Cn3nnc(-c4nc(-c5ccncc5)no4)c3CO2)cc1 (stereo unspecified),-8.5%
O=C(c1ccsc1)N1CCC(Nc2cccnc2)C1 (stereo unspecified),-0.9%
CC(C)N1C(=O)CO[C@H](c2ccc(NC(=O)c3ccc(C#N)cc3)cc2)[C@H]1CO,?
O=C(Cc1ccc(Cl)cc1)N1CCC(c2n[nH]c(=O)n2-c2ccccc2)CC1,10.4%
NC(=O)CNC(=O)c1cc2c(s1)CCN(C(=O)c1ccc(Cl)cc1)C2,-1.3%
COCCN[C@H]1[C@@H]2OC[C@@H](O2)[C@@H](NCc2ccc(-c3ccccc3)cc2)[C@@H]1O,-1.4%[70.6 µM]
C[C@@H](NC(=O)NC1(c2ccccc2)CCOCC1)c1onc(-c2ccc(F)cc2)c1C(=O)O,3.0%
COc1ccccc1C(=O)N1CCCN(CCc2ccccc2)c2ccccc21,7.0%
COc1ccc(CN2CCNc3cc(-c4ccnc(C)c4)ncc3C2)cc1O,-0.2%[70.6 µM]
CN(C)c1ccc(C(=O)N2CCC3(CC2)NC(=O)N(Cc2ccccc2)C3=O)cc1,1.4%
Cc1cc2c(c(=O)n(-c3ccccc3)c(=O)n2CC(=O)Nc2ccccc2F)n1C,4.5%
c1cc(-c2n[nH]c(CNC3CCC4(CCNCC4)CC3)n2)ccn1,10.6%
Cc1ccccc1CNC(=O)C1CCC(=O)N(CCCc2ccccc2)C1 (stereo unspecified),0.9%
COc1ccc2cc1Nc1ccc(cc1)C[C@H](NC(=O)Cc1cccc(Cl)c1)C(=O)N(C)[C@H](C(=O)NCCC(C)C)C2,-0.6%

(continued)
Structure,hNpr1 antagonist
C=CCOc1cccc(-c2nc(C(=O)Nc3ccc(F)cc3)cs2)c1,-2.3%
Cn1ccnc1CN1CCN(C(=O)c2cn(Cc3ccc(Cl)cc3)nn2)CC1,0.0%
CCC1=C(C(=O)OC)C(c2cccc(C)c2)N2C(CC(=O)NCC3CC3)=CSC2=N1 (stereo unspecified),-17.3%
O=C(O)Cc1cccn1-c1cccc(Cl)c1,-8.2%
Cc1n[nH]c(C)c1CCC(=O)Nc1cccn2nc(C3CCC3)nc12,-0.5%
Cc1ccc(-c2ccc(CCC(=O)N[C@@H]3CCOC[C@H]3OCC(=O)O)o2)cc1,-2.0%
O=c1c2nc(-c3ccc(F)cc3)ccc2ncn1Cc1ccccn1,8.7%[70.6 µM]
CS(=O)(=O)N(Cc1cccnc1)C1CN(C(=O)Nc2ccc3c(c2)OCCO3)C1,2.0%
O=C(C1CC(=O)N(c2n[nH]c3ccccc23)C1)N1CCc2ccccc2C1 (stereo unspecified),-0.6%
N#Cc1ccc(-c2nc(C3CC(=O)N(c4ccc(F)cc4)C3)no2)cc1 (stereo unspecified),4.7%
COCc1cc(CN(C)C(=O)CCc2cc3n(n2)CCNC3)[nH]n1,5.6%
COCCn1ccnc1C1CCN(C(=O)c2ccc3n[nH]nc3c2)CC1,7.8%
O=C(Cc1ccsc1)N1CCC(n2cc(-c3nc(-c4ccccc4)no3)nn2)C1 (stereo unspecified),-28.2%
CC1(c2ccccc2)N(Cc2ccccc2)C(=O)OC12CCN(Cc1cccc(C#N)c1)CC2 (stereo unspecified),-20.7%
CN(Cc1ccccc1)Cc1cc(C[C@@H]2CC[C@H](O)[C@@H](CNC3CCOCC3)O2)no1,-5.5%[70.6 µM]
NCCO[C@H]1C[C@@H](O)C12CCN(Cc1c(Cl)cccc1Cl)CC2,1.2%
CNC(=O)[C@@H]1C[C@@H](n2cc(CC(C)C)nn2)CN1,5.5%
Cc1ccc(CN2CCC3(CNc4ccccc4[S+](=O)([O-])N3)C2)cc1 (stereo unspecified),-5.6%
O=C(CN1C(=O)COc2ccc(C(=O)COc3cccc(F)c3)cc21)NCc1ccc2c(c1)OCO2,-17.7%
Cc1oc2c(c1C(=O)NC1CCN(C)CC1)CN(Cc1ccc(F)cc1)CC2,-15.1%

(further entries)
Structure,hNpr1 antagonist
N[C@@H]1CC[C@@H]1NC(=O)c1ccccc1-c1nc(-c2ccccc2)no1,3.2%
O=C(COc1ccccc1)NCC(=O)N1CCCCCNC(=O)CC1c1ccccc1 (stereo unspecified),4.2%
Cc1ccc(OC2(C(=O)N(C)Cc3n[nH]c4c3CCCC4)CCNCC2)cc1,-18.2%
COc1ccc(NC(=O)c2c(C)nc3n2CCC(Nc2ccccc2)C3)cn1 (stereo unspecified),9.5%[70.6 µM]
CCn1nccc1C(=O)N1CCC2(CC1)NC(=O)N(c1cccc(F)c1)N2,0.0%
CO[C@@H]1COCC[C@H]1NC(=O)c1ncc[nH]c1=O,-4.5%
O=c1[nH]c(N2CCOCC2)nc2c1CCN(Cc1ccccc1Br)CC2,0.7%
Cc1noc2c(-c3cn[nH]c3)cc(-c3ccc(F)cc3)nc12,2.6%[70.6 µM]
COc1ccccc1NC(=O)N1CCCC2(CCC(=O)N(CC3CC3)C2)C1 (stereo unspecified),1.3%
COCCNC(=O)C1CCCN1c1nc2ncccc2o1 (stereo unspecified),-15.0%[70.6 µM]
Cc1ccc(C(=O)N2CCC(N3C(=O)C(O)C34CCCCC4)CC2)cn1 (stereo unspecified),6.1%
CC(=O)Nc1ccc(CN2CCCC3(COc4ccccc4C(=O)N3)C2)cc1 (stereo unspecified),-0.9%
Cc1ccc(OCC(=O)N2[C@@H]3CC[C@H]2CC(NC(=O)c2ccncc2)C3)cc1 (stereo partly specified),-4.9%
